Compound activity deposited in PubChem BioAssay by National Center for Advancing Translational Sciences (NCATS).
HPGD block: qHTS Assay for Inhibitors of HPGD (15-Hydroxyprostaglandin Dehydrogenase); 15-hydroxyprostaglandin dehydrogenase [NAD(+)] (Homo sapiens), P15428; purified HPGD, NADH fluorescence kinetic, PGE2 substrate; Potency, µM, without a hit: at the highest dose activity change, negative = inhibition, usual class: inhibitors; 150,000 tested, 4.3% active; AID 894, 2007; active = well fitted inhibition curve with a large enough effect (not every such curve was filed as active); inconclusive = small, poorly fitted or top-dose-only effect, or another doubt; inactive = no such curve, though single readings can be large or run the other way;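 also: top concentration of the series not given in the record; plate controls included wells without enzyme; inactives centre near -10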
Target sequence (P15428 whole entry, looked up): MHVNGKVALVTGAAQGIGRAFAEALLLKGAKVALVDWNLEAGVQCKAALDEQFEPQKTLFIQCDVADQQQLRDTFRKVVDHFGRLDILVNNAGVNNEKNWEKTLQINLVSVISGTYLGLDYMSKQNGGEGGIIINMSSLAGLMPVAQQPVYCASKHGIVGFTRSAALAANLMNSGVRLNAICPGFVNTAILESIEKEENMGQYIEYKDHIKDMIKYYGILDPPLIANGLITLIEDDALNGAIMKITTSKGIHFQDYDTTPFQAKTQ
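20 nM HPGD preincubated 15 min at room temperature with compound in 50 mM Tris-HCl pH 8, 0.01% Tween 20. Started with 1 mM NAD+ and 30 uM prostaglandin E2; NADH fluorescence (360/450 nm) read 5 times over 30-s intervals, last minus first.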
* marks the source's active call; other numbers are inactive results; ? = inconclusive; & = joins results of further samples. % is scaled to controls: 0 for no effect and ±100 for the full control effect; potency is read from the fitted curve at half-maximal effect.

HPGD block,smiles
-8%,O=C(NC1CCCCC1)C(c1ccccc1)N1CCOCC1 (configuration not stated)
-7%,Cc1cc2nc(N)sc2cc1[N+](=O)[O-]
0%,CC(C)C[C@@H](CC(=O)N[C@H](CC(=O)N[C@@H]1CCNC[C@H]1C(=O)N[C@H](CC(=O)N[C@@H](CCC(=O)O)CC(=O)O)Cc1c[nH]c2ccccc12)C(C)C)NC(=O)[C@@H]1CNCC[C@H]1N
-24%,CCOc1c(Br)cc(C(N)=O)cc1OCc1ccccc1
-14%,COc1ccc(-n2nc(C(=O)NCC(=O)NCC3CCCO3)c3ccccc3c2=O)cc1Cl (configuration not stated)
-8%,Cc1cc(NC(=O)COc2ccc(N(C)S(=O)(=O)c3ccccc3)cc2)no1
0%,Cc1ccc(C(=O)N/C(=C\c2ccc(Cl)cc2)C(=O)NCC2CCCO2)cc1 (configuration not stated)
-14%,Cc1ccc(C(=O)OCC(=O)Nc2ccccc2N2CCOCC2)cc1
1%,COc1cc(C(=O)Nc2ccc(OCC(=O)O)cc2)cc(OC)c1OC
-6%,COc1ccccc1NC1=CC(=O)CC(c2ccccc2)C1 (configuration not stated)
-2%,NC(=O)C1CC(O)CN1c1nc(CN2CCOCC2)nc2scc(-c3ccccc3)c12 (configuration not stated)
-19%,Nc1nc(-c2ccccc2)cn1N
-17%,Cc1ccc(CNC(=O)[C@H](C)[C@@H]2C[C@@]2(C)[C@@H](NC(=O)OCc2ccccc2)c2ccccc2)c(F)c1F
-6%,Cc1cc(C)c(S(=O)(=O)c2ccccc2C(=O)O)c(C)c1
3%,C=CCOC(=O)C1=C(C)NC(=O)NC1/C=C/c1ccccc1OC (configuration not stated)
?,CCN(CC)Cc1c[nH]c2c(C(=O)OC)cccc12
-23%,CCC/C(=N\NC(=O)CNC(=O)/C=C/c1ccco1)c1ccccc1
?,CC1CC(C)CN(C(=O)c2ccc3c(c2NCCO)C(=O)c2ccccc2C3=O)C1 (configuration not stated)
-3%,COc1ccc(CCNC(=O)c2nnn(-c3cccc(C)c3)c2N)cc1OC
1%,Cc1nn(C)c(C)c1NC(=O)c1ccc(Cl)cc1
-10%,O=C(O)c1cccnc1-c1ncccc1C(=O)O
16µM*,CC1(C)CC(=O)C(=Cc2cn(CCC#N)nc2-c2ccc(Cl)cc2)C(=O)C1
1%,O=S(=O)(NCc1ccccc1)c1ccc(S(=O)(=O)N(Cc2cccs2)CC2CCCO2)cc1 (configuration not stated)
-22%,Cc1cc(C)c2nc(C(F)(F)F)nc(N3CC(C)OC(C)C3)c2c1 (configuration not stated)
-10%,Cc1c(NC(=O)c2nn3c(C(F)(F)F)cc(-c4ccccc4)nc3c2Br)c(=O)n(-c2ccccc2)n1C
-9%,O=c1cc(O)nc(SC23CC4CC(CC(C4)C2)C3)[nH]1
?,O=C(Nc1ccccc1N1CCN(c2ccc(F)cc2)CC1)c1ccccc1
-4%,Cc1cc(C(=O)N/N=C/c2cccc([N+](=O)[O-])c2)c(C)n1-c1ccccc1
-2%,COc1ccc(Cl)c(Cn2c(NCCCO)nc3c2c(=O)n(C)c(=O)n3C)c1
?,Fc1ccc(-c2cc3nc(-c4ccccc4)cc(N4CCOCC4)n3n2)cc1
3%,Cc1cc(C)cc(NC(=O)CCc2nc3ccccc3[nH]2)c1
-15%,Cc1[nH]n(-c2ccc([N+](=O)[O-])cc2)c(=O)c1C=NCCN1CCN(C(=O)c2cccc(F)c2)CC1
-10%,CCc1ccc2nc(-c3cccc(C)c3)nc(SCC(=O)NCC3CCCO3)c2c1 (configuration not stated)
-13%,O=C(NCc1cn2ccsc2n1)c1cccc(C(F)(F)F)c1
7%,C#CCOCCOCCOCCNc1nc(N2CCN(C(=O)Cn3cc(CC(C)O)nn3)CC2)nc(N2CCN(C(=O)[C@H](CCCCN)n3cc(CCC(=O)O)nn3)CC2)n1 (some centres not stated)
-15%,CCS(=O)(=O)Nc1c(C)n(C)n(-c2ccccc2)c1=O

Copied from the list.
Entry of `Cc1cc(C)cc(NC(=O)CCc2nc3ccccc3[nH]2)c1` under HPGD block: 3%
Entry of `Cc1[nH]n(-c2ccc([N+](=O)[O-])cc2)c(=O)c1C=NCCN1CCN(C(=O)c2cccc(F)c2)CC1` under HPGD block: -15%
Entry of `O=c1cc(O)nc(SC23CC4CC(CC(C4)C2)C3)[nH]1` under HPGD block: -9%
Entry of `CCS(=O)(=O)Nc1c(C)n(C)n(-c2ccccc2)c1=O` under HPGD block: -15%
Entry of `COc1ccc(Cl)c(Cn2c(NCCCO)nc3c2c(=O)n(C)c(=O)n3C)c1` under HPGD block: -2%

The list continues.
HPGD block,smiles
-5%,Cc1ccc(N(CC(=O)Nc2ccc(S(=O)(=O)N3CCOCC3)cc2)S(C)(=O)=O)cc1C
-2%,CCOC(=O)c1[nH]c(C)c(C(=O)NC2CCCCCC2)c1C
4.5µM*,CCOC(=O)CSc1nnc(CSc2nc3ccccc3c(=O)[nH]2)n1-c1ccccc1
-15%,CCOc1ccc(CCNC(=O)CSc2cc(=O)n(C)c3ccc(Cl)cc23)cc1OCC
-5%&-7%,CC(C)(S)[C@@H](N)C(=O)O
?,COC(=O)c1ccc2c(c1)C(C)(C)C(/C=C/c1ccccc1O)=[N+]2C
-3%,CN1C(=O)NC2(O)C(=O)c3ccccc3C12O (configuration not stated)
?,CCOc1ccc2[nH]c(=O)c(CN(Cc3ccco3)Cc3nnnn3Cc3ccccc3)cc2c1
-4%,COc1ccc(CCN2C(=O)C3C4CC(C5C(C(=O)O)=NOC45)C3C2=O)cc1OC (configuration not stated)
-5%,CCCn1c(SCC(=O)Nc2nc(C)cs2)nnc1-c1cccnc1
-22%,O=c1cc(CSc2nnnn2-c2ccccc2)nc2nc[nH]n12
5%,CCN1CCN(C(=O)C(C)N(c2ccc(C)cc2)S(C)(=O)=O)CC1 (configuration not stated)
-22%,O=C(Nc1ccc(Cc2ccncc2)cc1)c1ccc(Br)o1
?,COc1ccccc1-c1cc2ccccc2[nH]1
-7%,COc1ccc(OC)c2c(C)cc(C)nc12
-7%,COc1ccc(OC)c(CCNC(=O)CC2Oc3ccccc3NC2=O)c1 (configuration not stated)
-15%,CCc1[nH]nc2c1C1(C(=O)N(Cc3ccccc3)c3ccccc31)C(C#N)=C(N)O2 (configuration not stated)
-3%,COc1ccc(NC(=S)NCCc2ccccc2OC)c(OC)c1
-2%,CC(C)C(NC(=O)c1cccs1)c1nnc(SCC(=O)Nc2nccs2)n1C (configuration not stated)
-3%,O=C(c1cnn2c(C(F)(F)F)cc(-c3ccccc3)nc12)N1CCCc2ccccc21
-5%,Cc1nc(NC(=O)CN2CCOCC2)sc1-c1ccccc1
22µM*,CCNc1ccc(Br)cc(C(=O)/C=C/c2ccc(Cl)cc2Cl)c1=O
-5%,CN(c1ccccc1)S(=O)(=O)c1ccc(NC(=S)Nc2ccccc2)cc1
-16%,O=C(Nc1cccc(C(F)(F)F)c1)/C(=C\c1ccco1)NC(=O)c1cccs1

Molecules from the list above with bromine (four):
HPGD block,smiles
-24%,CCOc1c(Br)cc(C(N)=O)cc1OCc1ccccc1
-10%,Cc1c(NC(=O)c2nn3c(C(F)(F)F)cc(-c4ccccc4)nc3c2Br)c(=O)n(-c2ccccc2)n1C
-22%,O=C(Nc1ccc(Cc2ccncc2)cc1)c1ccc(Br)o1
22µM*,CCNc1ccc(Br)cc(C(=O)/C=C/c2ccc(Cl)cc2Cl)c1=O

Records listed so far printed as active in HPGD block.
HPGD block,smiles
16µM*,CC1(C)CC(=O)C(=Cc2cn(CCC#N)nc2-c2ccc(Cl)cc2)C(=O)C1
4.5µM*,CCOC(=O)CSc1nnc(CSc2nc3ccccc3c(=O)[nH]2)n1-c1ccccc1
22µM*,CCNc1ccc(Br)cc(C(=O)/C=C/c2ccc(Cl)cc2Cl)c1=O

Next section.
HPGD block,smiles
-3%,CS(=O)(=O)c1ccc(CNC(=O)[C@H]2C[C@@H]2[C@H](NP(=O)(c2ccccc2)c2ccccc2)c2ccccc2)cc1
?,COc1ccccc1NS(=O)(=O)c1cccc(C(=O)N/N=C/c2cn(-c3ccccc3)nc2-c2ccccc2)c1
-9%,O=C(NCCN1CCOCC1)C1CCN(S(=O)(=O)N2CCCCC2)CC1
-6%,CC1CCN(c2cc(=O)n(C3CCCCC3)c(=O)[nH]2)CC1
-7%,CCOC(=O)C1Oc2ccccc2C(c2ccoc2)=C1C(=O)OC (configuration not stated)
1%,NC(=O)C1CCN(C(=O)COc2ccc3ccccc3c2)CC1
?,O=c1c2ccccc2nc2c3ccccc3ncn12
-1%,CCOC(=O)c1ccc(NC(=O)c2ccc(NC(=O)c3ccccc3)cc2)cc1
-6%,CC(C)CCN1CC(C(=O)NCc2ccc(F)cc2)CC1=O (configuration not stated)
-4%,CC(=O)Nc1ccc(S(=O)(=O)N2CCSC2c2ccc(Cl)cc2)cc1 (configuration not stated)
-27%,O=C(Cc1ccccc1)NC(=S)Nc1ccc(N2CCCCC2)cc1
?,Cc1cccc(CNc2ncnc3ccc(-c4ccccc4CN(C)C)cc23)c1
3%,CCCNC(=O)C(CC)NS(=O)(=O)c1ccc(OC)cc1 (configuration not stated)
-11%,CCCN1C(=O)/C(=C/c2ccc(C)o2)SC1=Nc1ccc(OCC)cc1
-5%,O=C1NN(c2ccccc2)C(=O)/C1=C\c1cccn1-c1ccc(Cl)c([N+](=O)[O-])c1
-5%,CC(=O)N1CC[C@@H]2CC(=O)C[C@@H](C)[C@@H]21
20µM*,Cc1cc(=O)[nH]c(S/C=C/c2ccccc2)n1
?,Oc1cc2ccccc2cc1-c1nnc2n1-c1ccccc1SC2
-10%,C/C(=N\NC(=O)CCCCCNC(=O)c1ccccc1)c1ccccc1O
-7%,Cc1cc(-c2cccc([N+](=O)[O-])c2)nc2ccc3ccccc3c12
13µM*,CC(=O)c1cc(CC=C(C)C)c(O)cc1O
?,CC(=O)COc1ccc2c(-c3ccccc3)cc(=O)oc2c1
-7%,Cc1ccc(CN(c2ccc(C(=O)NCc3ccccn3)cc2)S(C)(=O)=O)cc1
-13%,CCN(CC)CCn1c(=N)n(CC(O)c2ccco2)c2ccccc21 (configuration not stated)
-12%,CCOc1ccccc1C1C(C(=O)OC)=C(N)OC2=C1C(=O)CCC2 (configuration not stated)
-3%,Cc1cccc(C)c1NC(=O)NC1CC2CCC(C1)N2Cc1cccs1 (configuration not stated)
-17%,CCC(CC)NC(=O)COC(=O)c1ccc(OCc2ccc(C(C)=O)cc2OC)c(OC)c1
-7%,O=C(C[n+]1cccc(CNC(=O)c2ccc(OC(F)F)cc2)c1)Nc1ccccc1Cl
0.14µM*,O=C(CP(=O)(c1ccccc1)c1ccccc1)N/N=C/c1cc(Br)cc(Br)c1O
?,Cc1ccc(C(=O)Nc2nc(C)c(C(=O)Nc3ccc4c(c3)CCC4)s2)cc1
-1%,Cc1nnc(SCC(=O)c2ccc(S(=O)(=O)N3CCOCC3)cc2)n1-c1ccccc1
-6%,COc1ccc(-c2nnn(CC(=O)N(CC(=O)NCCC(C)C)c3ccccc3)n2)cc1OC
-11%,O=C(O)C1CC(=O)N(C2CCCCCC2)C1 (configuration not stated)
-25%,Cc1ccccc1NC(=O)CCC(=O)N/N=C/c1cc([N+](=O)[O-])ccc1O
-8%,COc1cc(/C=N/N2CCN(C3c4ccccc4-c4ccccc43)CC2)cc(OC)c1O
-13%,Cc1nnc(C)c2c(C)n(C(c3ccccc3)c3ccccc3)c(C)c12
-5%,NC(Cc1ccccc1)=NCC(=O)O
1%,COc1cccc(NC(=O)COc2ccc(S(=O)(=O)NC(C)C)cc2)c1
-3%,Cc1ccc(NC(=O)C2CCCO2)cc1[N+](=O)[O-] (configuration not stated)
4%,COc1cccc2cc(C(=O)Nc3cccnc3N3CCOCC3)c(=O)oc12
-21%,O=C(c1ccc2ccccc2c1)N1CCN(c2ccc(C(F)(F)F)cn2)CC1
-12%,Cc1ccc(C(=O)O)cc1
-1%,COc1ccc(NC(=O)CN(C)CC(=O)Nc2ccccc2SC)cc1
4%,COC(=O)C1=C(C(=O)OC)[C@@H]2N(C)c3ccc(OC)cc3[C@@]23C[C@@H](C(=O)OC)N(S(=O)(=O)c2ccc(C(F)(F)F)cc2)C3=N1
?,O=C(O)c1cc2cc(Cl)cc(Cl)c2oc1=O
-8%,CCc1cc(C(=O)N2CCOCC2)c(NC2=NS(=O)(=O)c3ccccc32)s1
-5%,CC(C)OC(=O)[C@H]1O[C@H](CCCCOCc2ccccc2)[C@@H](C)[C@H]2O[C@H]21
-10%,CCCC1=C(C(=O)OCC)C(/C=C/c2ccccc2)n2ncnc2N1 (configuration not stated)
-1%,CC1(C)CO[C@H](CC(=O)O)CN1
2%,Cc1cc(NCc2ccco2)n2ncnc2n1
-29%,COc1ccc(N2CCN(C(=O)c3ccc(NS(=O)(=O)c4ccccc4)cc3)CC2)cc1
?,CCOC(=O)C1=C(CSc2nc(C)cc(C)c2C#N)OC(N)=C(C#N)C1c1ccccc1 (configuration not stated)
-8%,COc1ccc(-c2cn3c(n2)CCC3)cc1
-20%,COc1cc(OC)cc(C(=O)NCc2n[nH]c(=S)n2-c2ccccc2)c1
-6%,CC(=O)NCCC(=O)Nc1cc(F)ccc1C
-6%,CC(=O)OC1COC(N2CCc3ccccc32)C(OC(C)=O)C1OC(C)=O (configuration not stated)
3%,CCOC(=O)N1CCN(C(=O)CN(Cc2ccccc2)S(C)(=O)=O)CC1
1%,CCCCc1cc2c(cn1)=C(OC(=O)c1ccc(Cl)nc1)C(C)(OC(=O)CC)C(=O)C=2 (configuration not stated)

This is a subset (hit frequency here may not be typical).
